Screening results: PubChem BioAssay, National Center for Advancing Translational Sciences (NCATS)
Marburg entry inh: qHTS for inhibitors of binding or entry into cells for Marburg Virus; Marburg virus pseudotyped entry inhibition, cell reporter; control for the full effect not named in the record; about a third of the inactives were read at about 46 µM; Potency, µM (series often up to 37.8 µM), without a hit: at the highest dose activity change, negative = inhibition, hits mostly inhibitors; 300,000 tested, 1.8% active; active = well fitted inhibition curve with a large enough effect; inconclusive = small, poorly fitted or top-dose-only effect, or effect the other way; inactive = flat fitted curve, though single readings scatter; tested in HEK293 cells; about a fifth of its hits are not listed in these tables; further: on the % scale 0 is the no-effect control and ±100 the full control effect; luciferase read-out
Cruzain inh Det: qHTS Assay for Promiscuous and Specific Inhibitors of Cruzain (with detergent) | Cruzipain (Trypanosoma cruzi), P25779 | purified cruzain, Z-FR-AMC fluorescence, 0.01% Triton | Potency, µM, for inactives: max response, negative = inhibition, usual class: inhibitors | 200,000 tested, 0.43% active | AID 1478, 2009;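 further: plate controls were neutral wells for no effect and buffer without enzyme for full effect; nearly all actives have a fitted effect of over 40% in size; top concentration of the series not given in the record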
Target sequence (P25779 123-467 limits assumed): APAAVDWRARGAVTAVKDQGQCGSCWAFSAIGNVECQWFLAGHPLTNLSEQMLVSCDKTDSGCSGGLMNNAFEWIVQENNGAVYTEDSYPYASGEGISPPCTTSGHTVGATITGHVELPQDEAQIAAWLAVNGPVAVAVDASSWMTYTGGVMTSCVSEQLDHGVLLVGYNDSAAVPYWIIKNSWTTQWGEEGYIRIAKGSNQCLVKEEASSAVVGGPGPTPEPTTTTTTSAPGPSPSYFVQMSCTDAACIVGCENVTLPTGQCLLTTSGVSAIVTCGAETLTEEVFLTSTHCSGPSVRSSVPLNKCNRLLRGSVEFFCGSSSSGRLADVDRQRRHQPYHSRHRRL
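Read-out: AMC fluorescence (360 nm excitation, 450 nm emission), four reads over 2 min, first-to-third difference used. Conditions: cruzain 1.5 nM, Z-FR-AMC 2 uM, pH 5.5 acetate, 5 mM DTT, 0.01% Triton X-100.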
StopGo reporter: High Throughput Screening for Foot and Mouth Disease Virus Antivirals. 410,000 tested, 1.2% active. human cells with a luciferase reporter of 2A StopGo recoding; control for the full effect not named in the record. Potency, µM (top dose mostly 57.9 µM), for inactives: at the top dose signal change, negative = less light. AID 1159524, 2015; active = well fitted falling curve with a large enough effect; inconclusive = small, poorly fitted or top-dose-only effect; inactive = no such curve, though single readings can be large or run the other way; tested in HEK293T cells; further: on the % scale 0 is the no-effect control and ±100 the full control effect; nearly all actives have a fitted effect of over 45% in size; luciferase light after 4 h
Cruzain inh noDet: qHTS Assay for Promiscuous and Specific Inhibitors of Cruzain (without detergent); Cruzipain (Trypanosoma cruzi), P25779; purified cruzain, Z-FR-AMC fluorescence, no detergent; Potency, µM, inactives show max response, negative = inhibition, actives largely listed as inhibitors; 200,000 tested, 2.3% active; AID 1476, 2009;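 further: plate controls were enzyme without inhibitor for no effect and buffer without enzyme for full effect; nearly all actives have a fitted effect of over 40% in size; top concentration of the series not given in the record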
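Detergent-free condition (0.00005% Triton X-100) in acetate buffer pH 5.5 with DTT. 1.5 nM enzyme and compound were pre-mixed 15 min, then 2 uM Z-FR-AMC substrate added; reaction progress from fluorescence change between first and third reads (60 s).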
NS1 inh: qHTS Assay for Inhibitors of Influenza NS1 Protein Function; S. cerevisiae slowed by influenza A NS1, growth recovery by OD600; Potency, µM (titrated, usually from 46.1 µM), without a hit: at the highest dose activity, positive = more growth; AID 2326, 2010; 270,000 tested, 0.4% active; active means well fitted rising curve with a large enough effect; inconclusive means small, poorly fitted or top-dose-only effect; inactive means no such curve, though single readings can be large or run the other way; further: nearly all actives have a fitted effect of over 50% in size
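S. cerevisiae expressing influenza A NS1, grown in glucose, washed, then diluted 1:100 into pH 6.0 -URA galactose medium with 23 nl compound. Growth recovery read as OD600; NS1-free strain serves as control.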
RE007 growth inh: qHTS Assay for Inhibitors of the HIV-1 protein Vpr | S. pombe RE007 Vpr strain, BacTiter-Glo ATP luminescence, 24 h; control for the full effect not named in the record | Potency, µM (doses to about 92.2 µM), for inactives: at the top dose activity change, negative = less growth | 360,000 tested, 0.21% active; active = well fitted falling curve with a large enough effect; inconclusive = small, poorly fitted or top-dose-only effect; inactive = no such curve, though single readings can be large or run the other way;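 further: on the % scale 0 is the no-effect control and ±100 the full control effect; nearly all actives have a fitted effect of over 50% in size; the assay follows cell death caused by Vpr and the record does not say whether a fall means rescue or toxicity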
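Fission yeast RE007 carrying one integrated HIV-1 vpr copy, seeded at OD 0.01 in PMG+AL medium with 23 nL pinned compound. Grown 24 h at 30 degrees; viability read by BacTiter-Glo luminescence after 5 min.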
SARS PLpro yeast: qHTS of Yeast-based Assay for SARS-CoV PLP | S. cerevisiae expressing SARS-CoV PLpro, growth rescue; control for the full effect not named in the record | Potency, µM (doses to about 32.9 µM), for the others: top-dose activity, positive = growth rescue | 330,000 tested, 0.19% active | AID 485353, 2010; active means well fitted rising curve with a large enough effect; inconclusive means small, poorly fitted or top-dose-only effect; inactive means no such curve, though single readings can be large or run the other way; further: 0% is about no effect; nearly all actives have a fitted effect of over 55% in size; growth read by luminescence after 48 h
Lassa entry inh: qHTS for Inhibitors of binding or entry into cells for Lassa Virus; Lassa virus pseudotype entry inhibition, cell reporter; control for the full effect not named in the record; Potency, µM (series often up to 37.9 µM), for inactives: at the top dose activity change, negative = inhibition, most hits filed as inhibitors; 300,000 tested, 1.2% active; active means well fitted inhibition curve with a large enough effect; inconclusive means small, poorly fitted or top-dose-only effect, or effect the other way; inactive means flat fitted curve, though single readings scatter; tested in HEK293 cells; further: on the % scale 0 is the no-effect control and ±100 the full control effect; nearly all actives have a fitted effect of over 50% in size; luciferase read-out
Starred values were filed as active, the others as inactive; ? = inconclusive; nt = not tested or not shown; & = joins results of further samples; [ ] = dose if it differs, or a comment. Unless noted, the call rests on the fitted dose curve; in most records, active means well fitted curve in the direction sought with a large enough effect; inconclusive means small, poorly fitted or top-dose-only effect, or another doubt; inactive means no such curve, though single readings can be large; an effect the other way counts as inactive or inconclusive. Potency means the concentration at half of the fitted maximal effect.

SMILES | Marburg entry inh | Cruzain inh Det | StopGo reporter | Cruzain inh noDet | NS1 inh | RE007 growth inh | SARS PLpro yeast | Lassa entry inh
CCOc1ccccc1C(=O)OCC(=O)Nc1cc(Cl)ccc1Oc1ccccc1 | -19% | -5.2% | 3% | -5% | 8% | 10% | -5% | -5%
CN(C)CCCn1c(=O)n(C2CCCCC2)c(=O)c2c3c(sc21)CCCCC3 | 0%[46.1 µM] | nt | 0% | nt | nt | 2% | nt | 1%
CC1CC(C)(C)NC(=S)N1CCC(=O)N1c2ccccc2CC1C (stereo unspecified) | 6%[46.1 µM] | nt | 7% | nt | nt | -12% | 10% | 2%[46.1 µM]
CCOC(=O)c1cccc(NC(=O)CC2C(=O)N(c3ccc(C)cc3)C(=O)N2Cc2cccc(OC)c2)c1 (stereo unspecified) | nt | -7.0% | -14% | 18% | nt | nt | nt | -20%[46.1 µM]
CSc1nnc(Nc2ccccc2C)s1 | ? | -1.2% | 45%[activator] | -1% | -10% | -17% | -9% | 10%
Cn1c(SCC(=O)O)nnc1-c1cccc(NC(=O)c2cccc3ccccc23)c1 | nt | nt | -7% | nt | 3% | 14% | 0% | nt
O=C(NC(=S)Nc1sc2c(c1C(=O)O)CCCC2)c1ccccc1 | 3%[46.1 µM] | nt | -12% | nt | -39% | 92% | -12% | 21%[46.1 µM]
CN(C(=O)COC(=O)CNC(=O)c1sc2ccccc2c1Cl)C1CCS(=O)(=O)C1 (stereo unspecified) | -5% | nt | 19% | nt | nt | 14% | nt | 1%
Cc1cc(C)n(-c2nc3ccccc3s2)n1 | ? | nt | 0% | nt | -4% | 2% | 1% | 16%
COc1ccc(S(=O)(=O)N2CCCCCC2)cc1C(=O)N(C)CC(=O)Nc1ccccc1Br | -29% | nt | -9% | nt | nt | 3% | -1% | 0%
Cc1cc(C(=O)Nc2cccc(C)c2C)c2ccccc2n1 | nt | nt | -10% | nt | 4% | 7% | 1% | nt
Cc1cccc(NC(=S)NNC(=S)NCc2ccccc2)c1 | ? | 2.2% | 73%[activator] | -29% | -62% | -9% | 8% | 20%
O=C(CCn1cccn1)Nc1ccc2c(c1)OCCO2 | nt | nt | -4% | nt | -3% | -5% | 1% | nt
Clc1ccccc1-c1ncnc2ccc(Br)cc12 | -26%[46.1 µM] | nt | -8% | nt | nt | -27% | -4% | -1%
Cc1cc(O)c(C=O)c2c1C(=O)Oc1c(CO)c(O)c3c(c1O2)C(O)OC3=O (stereo unspecified) | nt | nt | -10% | nt | 13% | 4% | 8% | ?
Cc1cc(SCC(=O)c2cccc([N+](=O)[O-])c2)nc(=O)[nH]1 | nt | nt | 58%[activator] | nt | 21% | -11% | -6% | nt
COc1ccccc1C(=O)Nc1cccc(OCc2cc(=O)n3c4c(sc3n2)CCCC4)c1 | -2%[46.1 µM] | -0.4% | 18% | 1% | nt | nt | nt | -8%[46.1 µM]
COc1ccc(C(=O)N(Cc2ccccc2)c2cccc(C)c2)c(OC)c1OC | -35% | nt | -13% | nt | 3% | 7% | -5% | ?
CN(CCC1CCOCC1)C(=O)C1CCC(=O)N(CCc2ccc(Cl)cc2)C1 (stereo unspecified) | nt | nt | -6% | nt | -8% | -6% | -4% | nt
COc1ccc(C(=O)C(C)N(C(=O)c2ccc(Cl)cc2Cl)N2C(=O)C3C4C=CC(C4)C3C2=O)cc1 (stereo unspecified) | ? | -7.7% | -1% | -1% | 27% | 9% | -25% | -26%
CN1C(C(=O)NCc2cccc(Br)c2)CC2Cn3c(nc4cc(Cl)c(Cl)cc43)C21 (stereo unspecified) | nt | nt | -18% | nt | 5% | -2% | 9% | nt
Cc1nc(SCc2c(Cl)cccc2Cl)nc(OC(=O)N(C)C)c1C | nt | nt | -11% | nt | 9% | -4% | -3% | nt
COc1ccc(NC(=S)N(CCCN2CCCC2)Cc2cccs2)cc1 | ? | -1.6% | 18% | 5% | 20% | -1% | -19% | 0%
Cc1ccc(-n2ncc3c(=O)n(CC(=O)N4CCN(C(=O)c5ccco5)CC4)cnc32)cc1 | ? | nt | -18% | nt | nt | -2% | -4% | 1%
O=C(CN(Cc1ccccc1)S(=O)(=O)c1ccccc1)N/N=C/c1ccc2c(c1)OCO2 | ? | -3.2% | nt | -8% | -28% | -5% | -5% | 7.3µM*
O=C(NC1CCCCC1)Oc1cccc2ccccc12 | -11%[46.1 µM] | nt | -14% | nt | 3% | 2% | 1% | -20%
CCc1ncc(C(O)c2cccc(OC)c2OC)n1C (stereo unspecified) | 2% | 3.9% | 15% | -5% | -10% | -15% | 3% | -1%
Oc1ccccc1/C=N/n1c(-c2cccs2)n[nH]c1=S | -21%[46.1 µM] | -3.0% | -1% | -8% | -1% | -4% | 4% | 3%
O=C(Nc1ccccc1)c1ccccc1N=Cc1ccccc1O | ? | -8.7% | -2% | 9% | 0% | -23% | -24% | 6%
COc1ccccc1C(=O)Nc1ccc(-c2cc(C(F)(F)F)nn2-c2ccccc2)cc1 | ? | -11% | ? | ? | nt | nt | nt | -27%[46.1 µM]
COc1ccc(C(=O)NC2CCCCCC2)cc1OC1CCN(C(C)=O)CC1 | nt | nt | 8% | nt | -11% | 1% | -4% | nt
COc1cc(NC(=O)c2ccccc2)ccc1NC(=O)Cc1ccccc1 | 2%[46.1 µM] | nt | -2% | nt | -16% | -9% | 1% | 13%[46.1 µM]
CC(C)C(NC(=O)OC(C)(C)C)C(=O)NC(CCC(=O)OCc1ccccc1)C(N)=O (stereo unspecified) | 7%[46.1 µM] | nt | 17% | nt | 1% | 5% | 15% | 0%[46.1 µM]
Cc1ccc(-c2nn(C)c(=O)c3ccccc23)cc1CNC(=O)CSc1nc2ccccc2o1 | 2%&0% | -0.7% | -29% | -8% | -5% | -14% | 1% | 8%
Oc1ccc(/C=N/NC(=S)Nc2cccnc2)c(O)c1 | ? | -8.8% | -5% | -14% | 5% | 4% | ? | ?
COC(=O)CN(C#N)c1nc(OC)nc(N(C)C)n1 | ? | 28µM* | -2% | 20µM* | -5% | 13% | 1% | 21%
COc1ccc(S(=O)(=O)N2CCCCC2)cc1NC(=O)CN1CCN(C(C)=O)CC1 | 4%[46.1 µM] | nt | 10% | nt | nt | 2% | 0% | 14%[46.1 µM]
COc1ccccc1C1CCN(Cc2cccc(C(=O)N3CCC(O)CC3)c2)CC1 | nt | nt | 0% | nt | 9% | 5% | 1% | nt
CC(CC(=O)Nc1nncs1)c1ccccc1 (stereo unspecified) | 7% | 0.7% | 0% | ? | -2% | -12% | 7% | 11%
Cc1ccc2c(c1)N(Cc1cccc(F)c1)C(=O)C(C)O2 (stereo unspecified) | nt | nt | 2% | nt | -7% | -11% | -10% | nt
Cc1noc(C)c1COC(=O)c1csc2c1CCC(C)C2 (stereo unspecified) | ? | nt | 4% | nt | nt | -1% | -8% | 14%
CC1Cc2ccccc2N1C(=O)COC(=O)c1ccc(O)cc1 (stereo unspecified) | nt | nt | 3% | nt | -7% | -4% | 0% | nt
c1ccc(-c2ccccc2-c2nc(-c3cccnc3)no2)cc1 | ? | -2.8% | -7% | 4% | -102% | -13% | -4% | 0%
COc1cccc(N2CCN(C(=O)C3CCCN(S(=O)(=O)c4cccc5nsnc45)C3)CC2)c1 (stereo unspecified) | ? | -2.5% | -24% | -1% | nt | nt | nt | ?
COc1ccc(S(=O)(=O)NC(Cc2ccccc2)C(=O)O)cc1 (stereo unspecified) | nt | nt | -2% | nt | 4% | -2% | 1% | nt
CCOc1ccccc1Nc1nnc(SCC(=O)NC(=O)c2cccn2C)s1 | 43% | 0.7% | 38%[activator] | ? | 24% | -19% | -2% | 3%
COc1cc(/C=C/C(=O)OCC(=O)Nc2cccc(F)c2)ccc1O | ? | nt | -15% | nt | nt | -9% | 2% | -1%
COc1ccc(NC(=O)CC2Nc3ccccc3NC2=O)c([N+](=O)[O-])c1 (stereo unspecified) | -10%[46.1 µM] | nt | -3% | nt | nt | -7% | -2% | -13%
CC(CC(=O)O)Nc1ccccc1O (stereo unspecified) | 6%[46.1 µM] | nt | -3% | nt | 4% | -18% | -1% | -1%
CN1CCN(CCC(=O)N/N=C/c2ccccn2)CC1 | 25%[46.1 µM] | nt | -6% | nt | 5% | 7% | -3% | -3%[46.1 µM]
Continued:
SMILES | Marburg entry inh | Cruzain inh Det | StopGo reporter | Cruzain inh noDet | NS1 inh | RE007 growth inh | SARS PLpro yeast | Lassa entry inh
COc1ccc(CC(=O)N2CCc3cc(OC)c(OC)cc3C2)cc1 | 0%[46.1 µM] | nt | 6% | nt | -3% | 10% | -1% | -1%[46.1 µM]
COc1ccc(C2(C(=O)N3CCC(n4nc(-c5ccccc5)oc4=O)CC3)CC2)cc1 | 24%[46.1 µM] | nt | -22% | nt | 1% | -3% | ? | ?
CCCCn1c(O)c(C(CC)=Nc2cccc(C(=O)O)c2)c(=O)[nH]c1=O | -6% | 2.6% | -7% | -14% | -14% | 4% | 5% | 6%
O=[N+]([O-])c1ccc(N2CCN(Cc3ccc([N+](=O)[O-])o3)CC2)cc1 | 1%[46.1 µM] | nt | -29% | nt | -64% | 9% | -19% | 0%[46.1 µM]
CCc1cn([C@H]2C[C@H](O)[C@@H](CO)O2)c(=O)[nH]c1=O | 38% | 0.1% | -16%&-7% | 6% | -4% | 4%[18.4 µM] | 12% | 3%
C/C(CC(=O)NCc1ccco1)=N\NC(=O)Cc1ccc(-c2ccccc2)cc1 | 1% | 7.3% | 4% | ? | ? | -9% | 12% | -7%
O=C(NCc1ccc2c(c1)OCO2)c1cccc(C(=O)NCc2ccc3c(c2)OCO3)c1 | 1% | -1.9% | ? | 0% | 2% | 5% | -5% | -23%
CCOC(=O)N1CCN(c2cc(N3CCOCC3)c(F)cc2[N+](=O)[O-])CC1 | -7% | nt | 0% | nt | -2% | -7% | 0% | 7.9µM*
CCCOc1ccc(C(=O)Nc2sc3c(c2C(=O)OCC)CCCCC3)cc1 | nt | 0.7% | -22% | -3% | nt | nt | nt | -15%[46.1 µM]
